FGF22 binding = binders of human FGF22 protein, primary screen, FGF22 synaptogenesis inhibitor project, biophysical, thermal shift, single point; Fibroblast growth factor 22 (Homo sapiens), Q9HCT0; recombinant FGF22 thermal shift, SYPRO orange fluorescence; percent of sucrose octasulfate shift, DMSO zero; calls only at 9.99 µM; 340,000 compounds, 1.5% hits; AID 651658, 2012;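 active means melting point raised past a set limit in the mean and every replicate; three in four hits are not shown here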
Target sequence (Q9HCT0 whole entry, looked up): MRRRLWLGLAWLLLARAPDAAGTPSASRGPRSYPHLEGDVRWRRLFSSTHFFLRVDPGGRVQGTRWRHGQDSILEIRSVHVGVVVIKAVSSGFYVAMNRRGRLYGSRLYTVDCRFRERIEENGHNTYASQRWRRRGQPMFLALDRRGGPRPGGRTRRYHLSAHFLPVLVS
AF4-AF9 inh = inhibitors of AF4 peptide binding to AF9, primary screen, biochemical, AlphaScreen, biotin-AF4 peptide, FLAG-AF9, single point; AID 651704, 2012; 350,000 compounds, 0.47% hits; Protein AF-9 (Homo sapiens), P42568; inhibition, % at 10 µM;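 active means every replicate reaching a set inhibition limit, whatever the replicate mean, cut at about 25% in these data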;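 further: 0% = plate neutral control median and 100% = total signal loss; the record names both 10 and 1 µM as test concentration; the first replicate is given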
Target sequence (P42568 whole entry, looked up): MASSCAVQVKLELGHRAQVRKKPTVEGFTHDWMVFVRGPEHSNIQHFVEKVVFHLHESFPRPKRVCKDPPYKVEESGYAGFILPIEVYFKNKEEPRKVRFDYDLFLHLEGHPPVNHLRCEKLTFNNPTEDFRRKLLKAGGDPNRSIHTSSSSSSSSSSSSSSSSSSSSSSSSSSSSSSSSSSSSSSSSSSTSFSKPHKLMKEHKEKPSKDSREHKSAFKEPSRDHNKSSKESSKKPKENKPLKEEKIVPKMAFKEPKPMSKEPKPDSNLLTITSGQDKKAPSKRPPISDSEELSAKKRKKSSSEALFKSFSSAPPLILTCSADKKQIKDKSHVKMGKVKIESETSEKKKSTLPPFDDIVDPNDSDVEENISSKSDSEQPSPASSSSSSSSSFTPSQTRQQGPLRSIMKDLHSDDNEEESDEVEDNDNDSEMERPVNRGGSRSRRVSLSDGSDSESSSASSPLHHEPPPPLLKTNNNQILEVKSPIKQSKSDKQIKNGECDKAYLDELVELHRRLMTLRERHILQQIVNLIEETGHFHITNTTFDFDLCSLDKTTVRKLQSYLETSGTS
An asterisk follows results filed as active; i = inactive; · = not tested or not shown; + = active, no number.

A first look (5 entries):
SMILES	FGF22 binding	AF4-AF9 inh
O=C(N[C@@H](Cc1cccnc1)C(=O)N1CCC[C@H]1C(=O)NC1CCCC1)C1CCCC1	i	·
O=C(c1cccnc1)N1C[C@@H]2[C@H](c3ccccc31)[C@@H](CO)N2C(=O)CN1CCOCC1	i	·
Cc1ccccc1S(=O)(=O)N1CC[C@@H]2[C@@H](CO)Nc3ccc(-c4ccc(F)cc4)cc3[C@@H]21	i	·
COc1ccc(-c2ccc3c(c2)[C@@H]2[C@@H](CCN2S(=O)(=O)c2ccccc2C)[C@@H](CO)N3C)cc1	i	·
CC(C)NC(=O)Nc1ccc2c(c1)C(=O)N(C)[C@H]1CC[C@@H](CC(=O)NC3CCCCC3)O[C@H]1CO2	i	·

The listing, repeating the preview:
SMILES	FGF22 binding	AF4-AF9 inh
O=C(N[C@@H](Cc1cccnc1)C(=O)N1CCC[C@H]1C(=O)NC1CCCC1)C1CCCC1	i	·
O=C(c1cccnc1)N1C[C@@H]2[C@H](c3ccccc31)[C@@H](CO)N2C(=O)CN1CCOCC1	i	·
Cc1ccccc1S(=O)(=O)N1CC[C@@H]2[C@@H](CO)Nc3ccc(-c4ccc(F)cc4)cc3[C@@H]21	i	·
COc1ccc(-c2ccc3c(c2)[C@@H]2[C@@H](CCN2S(=O)(=O)c2ccccc2C)[C@@H](CO)N3C)cc1	i	·
CC(C)NC(=O)Nc1ccc2c(c1)C(=O)N(C)[C@H]1CC[C@@H](CC(=O)NC3CCCCC3)O[C@H]1CO2	i	·
Cc1ccc(S(=O)(=O)Nc2ccc3c(c2)CC(=O)N([C@H](C)CO)C[C@@H](C)[C@@H](CN(C)S(=O)(=O)c2ccc(F)cc2)O3)cc1	i	·
COc1cc(NC(=O)[C@@H](Cc2ccccc2)NC(=O)[C@H]2O[C@@H](n3ccc(=O)[nH]c3=O)[C@H](O)[C@@H]2O)cc(OC)c1OC	i	·
COc1ccc(N2C(=O)c3n[nH]c(C(C)C)c3C2c2ccc(F)cc2)cc1 (configuration not stated)	i	·
CC(C)C(=O)Nc1ccc2c(c1)C(=O)N(C)[C@H]1CC[C@H](CC(=O)N[C@H](C)c3ccccc3)O[C@@H]1CO2	i	·
C[C@@H]1CCCCO[C@@H](CN(C)C(=O)Nc2ccc3c(c2)OCO3)[C@H](C)CN([C@@H](C)CO)C(=O)c2cc(NS(=O)(=O)c3ccc(F)cc3)ccc2O1	i	·
Cc1cccc(S(=O)(=O)N2C[C@@H](O)COC[C@H]3O[C@H](CC(=O)Nc4ccc(-c5ccccc5)cc4)CC[C@@H]32)c1	+	·
COc1cccc(NC(=O)C[C@@H]2CC[C@@H]3[C@H](COc4ccc(NS(=O)(=O)c5cccc(F)c5)cc4C(=O)N3C)O2)c1	i	·
COCC(=O)NC[C@H]1[C@H](c2ccc(C3=CCCC3)cc2)[C@H](CO)N1C(=O)C1CC1	i	·
COc1ccc2c(c1)[C@@H](NC(=O)C(F)(F)F)[C@@H]1CCCC[C@]21c1ccccc1	i	·
C[C@@H]1CCCCO[C@H](CN(C)Cc2ccc(C(F)(F)F)cc2)[C@@H](C)CN([C@H](C)CO)C(=O)c2cc(NC(=O)Nc3ccccc3)ccc2O1	i	·

Of the compounds above, these have a CF3 group.
SMILES	FGF22 binding	AF4-AF9 inh
COc1ccc2c(c1)[C@@H](NC(=O)C(F)(F)F)[C@@H]1CCCC[C@]21c1ccccc1	i	·
C[C@@H]1CCCCO[C@H](CN(C)Cc2ccc(C(F)(F)F)cc2)[C@@H](C)CN([C@H](C)CO)C(=O)c2cc(NC(=O)Nc3ccccc3)ccc2O1	i	·

The list goes on:
SMILES	FGF22 binding	AF4-AF9 inh
CNC[C@@H]1OCCCC[C@@H](C)Oc2ccc(NS(=O)(=O)c3cn(C)cn3)cc2C(=O)N([C@@H](C)CO)C[C@H]1C	i	·
COc1ccc2c3c(n(C)c2c1)[C@@H](CO)N(C(=O)c1cnccn1)CC31CCN(C(=O)c2cnccn2)CC1	i	·
Cc1noc(C)c1S(=O)(=O)Nc1ccc2c(c1)CC(=O)N([C@H](C)CO)C[C@H](C)[C@@H](CN(C)C(=O)Nc1ccc3c(c1)OCO3)O2	i	·
C/C=C/c1ccc(C2[C@@H]3CN(C(=O)NC4CCCCC4)C[C@H]2N3)cc1 (some centres not stated)	i	·
C[C@@H]1CCCCO[C@H](CN(C)Cc2ccncc2)[C@@H](C)CN([C@H](C)CO)C(=O)c2cc(NC(=O)Nc3ccc(F)cc3)ccc2O1	i	·
CCCC(=O)Nc1ccc2c(c1)C(=O)N(C)[C@H]1CC[C@H](CC(=O)NCCOC)O[C@@H]1CO2	i	·
Cc1ccc(-c2cc(NC(=O)Cc3c[nH]c4ccccc34)ccc2N(C)c2cccnc2)cc1	i	·
COc1ccc(S(=O)(=O)N(C)C[C@H]2OCCCC[C@H](C)Oc3ccc(NC(=O)Nc4ccccc4)cc3C(=O)N([C@@H](C)CO)C[C@H]2C)cc1	i	·
COc1cccc(C(=O)N[C@H](C(=O)N2CCC[C@H]2C(=O)NC2CCCC2)C2CCCCC2)c1	i	·
CC(C)(C)OC(=O)N1CCC2CCN(S(C)(=O)=O)CC21 (configuration not stated)	i	·
COc1ccc(S(=O)(=O)N(C)C[C@H]2Oc3ccc(NC(=O)Nc4ccc(F)cc4)cc3CC(=O)N([C@@H](C)CO)C[C@@H]2C)cc1	i	·
Cc1ccccc1-c1ccc2c(c1)[C@@H]1C[C@H]3[C@@H](CN1CC2)[C@H](C)OC(C1CCCCC1)N3C (some centres not stated)	i	·
CC(C)C(=O)Nc1ccc2c(c1)C(=O)N(C)[C@H]1CC[C@H](CC(=O)N[C@@H](C)c3ccccc3)O[C@H]1CO2	i	·
COc1ccc(NC(=O)N(C)C[C@@H]2Oc3ccc(NC(=O)Nc4ccc5c(c4)OCO5)cc3CC(=O)N([C@@H](C)CO)C[C@@H]2C)cc1	i	·
O=C(CC1CC1)Nc1ccc2c(c1)[C@@H]1C[C@H](CC(=O)N3CCOCC3)O[C@H](CO)[C@@H]1O2	i	·
C[C@@H]1CN([C@@H](C)CO)C(=O)c2cc(NC(=O)CCC(F)(F)F)ccc2O[C@@H](C)CCCCO[C@@H]1CN(C)C(=O)Nc1cccc2ccccc12	i	·
CNC[C@H]1OCCCC[C@H](C)Oc2ccc(NS(=O)(=O)c3c(C)noc3C)cc2C(=O)N([C@@H](C)CO)C[C@H]1C	i	·
Cc1ccc(S(=O)(=O)N2CC(CBr)=CCC2c2ccccc2)cc1 (configuration not stated)	i	·
Cc1ccc(S(=O)(=O)N(C)C[C@H]2Oc3ccc(NS(=O)(=O)c4ccc(F)cc4)cc3C(=O)N([C@H](C)CO)C[C@H]2C)cc1	i	·
COc1ccc(S(=O)(=O)Nc2ccc3c(c2)CC(=O)N([C@@H](C)CO)C[C@@H](C)[C@H](CN(C)S(=O)(=O)c2ccccc2)O3)cc1	i	·
Cc1noc(C)c1S(=O)(=O)Nc1ccc2c(c1)CC(=O)N([C@@H](C)CO)C[C@@H](C)[C@@H](CN(C)Cc1ccc(Oc3ccccc3)cc1)O2	i	·
COc1ccc(NC(=O)Nc2ccc3c(c2)C(=O)N([C@H](C)CO)C[C@@H](C)[C@H](CN(C)S(=O)(=O)c2c(C)noc2C)OCCCC[C@H](C)O3)cc1	i	·
C[C@@H]1CN([C@H](C)CO)C(=O)Cc2cc(NS(=O)(=O)c3cccs3)ccc2O[C@@H]1CN(C)C(=O)Nc1cccc2ccccc12	i	·
C[C@@H]1CN([C@H](C)CO)C(=O)c2cccc(NC(=O)Nc3ccc4c(c3)OCO4)c2O[C@@H]1CN(C)C(=O)Nc1ccc(F)cc1	i	·
COc1ccc(-c2ccc3c(c2)[C@@H]2[C@@H](CCN2S(=O)(=O)c2ccccc2F)[C@@H](CO)N3)cc1	i	·
COC(=O)C1=C(C)N(C)C(=NCc2ccccc2)NC1CCc1ccccc1 (configuration not stated)	i	·
Cc1ccccc1-c1ccc(C2[C@@H]3CN(C(=O)c4cnccn4)C[C@H]2N3)cc1 (some centres not stated)	i	·
O=C(Cc1ccccc1)N1C[C@H]2[C@@H](c3ccccc31)[C@H](CO)N2C(=O)Nc1ccc(F)cc1	i	·
O=C(C[C@H]1C[C@@H]2c3cc(NC(=O)Nc4ccccc4)ccc3O[C@@H]2[C@@H](CO)O1)NCc1cccnc1	i	·
C[C@H](CO)N1C[C@H](C)[C@@H](CN(C)CC2CCCCC2)Oc2c(NC(=O)c3cnccn3)cccc2C1=O	i	·
COc1ccc(NC(=O)Nc2cccc3c2O[C@H](CN(C)C(=O)Nc2cccc4ccccc24)[C@@H](C)CN([C@H](C)CO)C3=O)cc1	i	·
CNC[C@H]1OCCCC[C@@H](C)Oc2ccc(NS(=O)(=O)c3c(C)noc3C)cc2C(=O)N([C@@H](C)CO)C[C@H]1C	i	·
C[C@H](CO)N1C[C@H](C)[C@@H](CN(C)C(=O)Nc2ccc(F)cc2)Oc2ccc(NC(=O)Nc3ccc4c(c3)OCO4)cc2C1=O	i	·
CC(C)(C)C(=O)c1c(N)[nH]c(C(=O)c2ccccc2)c1-c1ccc([N+](=O)[O-])cc1	i	·
CN(C(=O)[C@H]1O[C@@H](n2cnc3c(=O)[nH]c(N)nc32)[C@H](O)[C@@H]1O)C1CCCCC1	i	·
C[C@@H]1CN([C@H](C)CO)C(=O)Cc2cc(NS(C)(=O)=O)ccc2O[C@@H]1CN(C)C(=O)Nc1ccc2c(c1)OCO2	i	·
COCC(=O)Nc1ccc2c(c1)C(=O)N(C)[C@H]1CC[C@@H](CC(=O)OC)O[C@H]1CO2	i	·
CCCN1C[C@@H](C)[C@H](OC)CN(C)C(=O)c2ccc(NC(=O)Nc3c(C)noc3C)cc2OC[C@H]1C	i	·
C[C@@H]1CN([C@H](C)CO)C(=O)Cc2cc(NC(=O)Nc3ccc4c(c3)OCO4)ccc2O[C@@H]1CN(C)C(=O)Nc1ccc(F)cc1	i	·
COC(=O)C1=C(C)N(Cc2cccc(C(F)(F)F)c2)C(=NCc2cccc(C(F)(F)F)c2)NC1c1ccccc1C(F)(F)F (configuration not stated)	i	·
C[C@@H]1CCCCO[C@@H](CN(C)C(=O)Cc2ccccc2)[C@H](C)CN([C@@H](C)CO)C(=O)c2cc(NC(=O)CCC(F)(F)F)ccc2O1	i	·
CN1c2ccc(-c3cccc(F)c3)cc2[C@H]2[C@H](CCN2C(=O)C2CCCC2)[C@H]1CO	i	·
C[C@@H]1CCCCO[C@@H](CN(C)C(=O)Nc2ccc3c(c2)OCO3)[C@H](C)CN([C@H](C)CO)C(=O)c2cc(NC(=O)Cc3ccccc3)ccc2O1	i	·
COC(=O)N1C[C@H](OC(=S)Nc2ccc(OC)cc2OC)[C@H]2C[C@@H]1c1ccccc1O2	i	·
COc1ccc(CNC(=O)[C@@H](Cc2ccccc2)NC(=O)[C@H]2O[C@@H](n3cnc4c(=O)[nH]c(N)nc43)[C@H](O)[C@@H]2O)cc1	i	·
COc1ccccc1CN1[C@@H]2CNC[C@H]1C2c1ccc(-c2cccc(C#N)c2)cc1 (some centres not stated)	i	·
C[C@@H]1CN([C@@H](C)CO)C(=O)Cc2cc(NC(=O)Nc3cccc4ccccc34)ccc2O[C@H]1CN(C)S(=O)(=O)c1cccs1	i	·
O=C(N[C@H](C(=O)N1CCC[C@H]1C(=O)NC1CCCC1)C1CCCCC1)c1ccc(Cl)c(Cl)c1	i	·
CC1CCN(CCNC(=O)c2ccc3c(=O)n(CCc4ccccc4)c(=O)[nH]c3c2)CC1	i	·
C[C@@H]1CCCCO[C@H](CN(C)C(=O)CCCN(C)C)[C@H](C)CN([C@@H](C)CO)C(=O)c2cc(NC(=O)c3ccncc3)ccc2O1	i	·
C[C@H](CO)N1C[C@H](C)[C@@H](CN(C)C(=O)Nc2cccc3ccccc23)Oc2ccc(NC(=O)Nc3ccc(C(F)(F)F)cc3)cc2C1=O	i	·
C[C@@H](NC(=O)C[C@@H]1CC[C@@H]2[C@H](COC[C@@H](O)CN2C(=O)Nc2cccc(Cl)c2)O1)c1ccccc1	i	·
CC(C)(O)C#Cc1ccc([C@@H]2[C@@H](CO)N3CCCCN(C(=O)c4cccc(F)c4)C[C@@H]23)cc1	i	·
COc1ccc(NC(=O)Nc2cccc3c2O[C@@H](CN(C)S(=O)(=O)c2ccc(F)cc2)[C@@H](C)CN([C@H](C)CO)C3=O)cc1	i	·
C[C@@H]1CCCCO[C@H](CN(C)C(=O)NC2CCCCC2)[C@H](C)CN([C@@H](C)CO)C(=O)c2cc(NC(=O)c3ccccc3)ccc2O1	i	·
COc1ccc2c3c([nH]c2c1)[C@H](CO)N(Cc1nccs1)CC31CN(Cc2ccncc2)C1	·	7.3
C[C@@H]1CN([C@@H](C)CO)C(=O)c2cc(NC(=O)Cc3ccccc3)ccc2O[C@@H](C)CCCCO[C@H]1CN(C)C	·	-5.5
CN1C[C@H]2[C@@H](c3ccccc31)[C@H](CO)N2C(=O)Nc1ccc(F)cc1	·	-0.2
O=C(C[C@H]1CC[C@@H]2[C@H](COC[C@H](O)CN2S(=O)(=O)c2ccc(Cl)cc2)O1)NCCN1CCCCC1	·	-2.4
O=C(Cc1cccnc1)N1CC2(C1)[C@@H](c1ccccc1)[C@H](CO)N2C(=O)C1CCOCC1	·	-3.2
O=C(c1ccncc1)N1CC(=O)N2[C@H](CO)[C@@H](c3ccc(/C=C/c4ccccc4)cc3)[C@H]2C1	·	7.6
O=C(O)C[C@H]1C[C@H]2c3cc(NC(=O)Cc4ccncc4)ccc3O[C@H]2[C@@H](CO)O1	·	-1.3
O=C(Nc1ccccc1)N1CC(=O)N2[C@H](CO)[C@@H](c3ccc(C#CC4CC4)cc3)[C@H]2C1	·	0.1

These rows are one share of the data. The share of hits here may be higher or lower than overall.
